AmpC nodet inh: blocks E. coli AmpC beta-lactamase in absence of detergent; P00811; AmpC nitrocefin hydrolysis, absorbance 480 nm, no detergent; potencies from a single point are estimates; Potency, µM (highest dose often 28.7 µM), for the others: at the highest dose activity change, negative = inhibition; actives 1.8% (n = 71,000); AID 585; active = falling curve, for most hits resting on a single point; inconclusive = weak or doubtful change; inactive = flat or rising curve; note: % of control where 0% means no effect; about half of the hits show no inhibition at the top dose; a quarter of the inactives give rising signals
Target sequence (P00811 whole entry, looked up): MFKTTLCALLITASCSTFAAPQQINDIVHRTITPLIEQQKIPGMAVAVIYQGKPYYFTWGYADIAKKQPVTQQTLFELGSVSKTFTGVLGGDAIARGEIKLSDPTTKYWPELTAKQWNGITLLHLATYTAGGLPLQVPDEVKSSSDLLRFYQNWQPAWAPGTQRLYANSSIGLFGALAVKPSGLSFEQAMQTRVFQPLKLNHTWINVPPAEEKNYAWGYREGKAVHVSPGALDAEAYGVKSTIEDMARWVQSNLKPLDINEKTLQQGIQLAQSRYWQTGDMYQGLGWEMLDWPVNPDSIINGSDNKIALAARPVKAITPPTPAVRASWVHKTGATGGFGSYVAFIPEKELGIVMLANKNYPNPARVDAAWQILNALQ
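Enzyme, pH 7.0 phosphate. Compound titrations were pre-incubated with AmpC for 15 min at room temperature before nitrocefin (stock 800 uM) addition; product formation was recorded at 480 nm every 20 s for 4 min.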
Numbers without * were called inactive; ? = inconclusive; [ ] = remark or other dose. Potency is the fitted concentration of half-maximal effect. Not all compounds are listed. The share of hits here may be higher or lower than overall.

SMILES	AmpC nodet inh
C=CCn1c(O)c(C(C)=Nc2ccc(NC(C)=O)cc2)c(=O)[nH]c1=O	-2%
CCn1c(SCC(=O)Nc2ccc(NC(=O)c3cccs3)cc2)nnc1-c1cccnc1	35%
O=C(O)Cn1nc(-c2ccc(F)cc2)oc1=O	-8%
CN1CCCC(OC(=O)CCCCC(=O)OC2CCCN(C)C2)C1 (centres undefined)	-8%
O=C(C1CCN(S(=O)(=O)N2CCOCC2)CC1)N1CCOCC1	0%
O=C(CN1C(=O)COc2ccccc21)c1ccc(Cl)cc1	-3%
O=C(O)[C@H](Cc1cc(I)c(O)c(I)c1)C1CCCCC1	-14%[5.75 µM]
Cc1noc(C)c1C(=O)OCC(=O)c1c[nH]c2ccccc12	-15%
COc1ccc(C)cc1NC(=O)c1nc2nc(C)cc(C)n2n1	22%
Cc1nc(CNS(=O)(=O)c2ccc3ccccc3c2)cs1	8%
CCN1CCN(C(=O)N[C@H](C(=O)N[C@@H]2C(=O)N3[C@@H]2SC(C)(C)[C@@H]3C(=O)O)c2ccccc2)C(=O)C1=O	?
O=C(O)CCCC(=O)Nc1nc2n(n1)C(c1ccc(F)cc1)CC(c1ccc(Cl)cc1)N2 (centres undefined)	44%
CC(C)[C@]1(NC(=O)[C@H]2C=C3c4cccc5[nH]cc(c45)C[C@H]3N(C)C2)O[C@@]2(O)[C@H]3CCCN3C(=O)[C@H](Cc3ccccc3)N2C1=O	97%
CC1Cc2ccccc2N1C(=O)CN1C(=O)NC(C)(c2ccc3c(c2)OCCO3)C1=O (centres undefined)	36%
NC(=O)C1(N2CCCCC2)CCN(S(=O)(=O)c2cc(Cl)ccc2Cl)CC1	39%
Brc1ccc(-c2nn3c(-c4ccncc4)nnc3s2)o1	-2%
O=C(Cc1ccccc1)OCCN1CCCCC1	0%
COc1ccc(C(C)=O)cc1COC(=O)c1cccc(N(C)C)c1	48%
CCOC(=O)c1c(C)[nH]c(C)c1C(=O)CSc1nnc(-c2ccncc2)n1C	2%
Cn1c(Cn2nnc3ccccc32)nnc1SCC(=O)N1CCc2ccccc21	29%
COc1cccc(N2CCN(S(=O)(=O)c3ccc4nc(-c5ccccc5)[nH]c4c3)CC2)c1	-9%
CCOC(=O)C1C(=O)NC(SCC(=O)OC)=C(C#N)C1c1ccccc1OCC (centres undefined)	-1%
CCOc1ccccc1NC(=O)CSc1nnc(Cn2c(=O)sc3ccccc32)n1C	86%
COC(=O)CC1Oc2ccc(C)cc2NC1=O (centres undefined)	-3%
O=C(C1CCCN1S(=O)(=O)c1cccc2cccnc12)N1CCc2ccccc2C1 (centres undefined)	4µM*[single pt active]
OC(CCCCN1CCCCC1)c1ccccc1 (centres undefined)	-2%
COc1cc2c(cc1OC)-c1c(OC)c(OC)cc3c1C(C2)N(C)CC3 (centres undefined)	57%
CCCCNc1nc(C)nc2c1nc(-c1ccccc1)n2CCCN(CC)CC	37%
CCOc1ccc(-c2nc(CSc3nncs3)cs2)cc1OC	66%
Cc1cc(C)cc(OCc2nnc(SCC(=O)c3ccc(Br)cc3)o2)c1	-15%

Brought forward from above: 2 compounds; new compounds follow.
SMILES	AmpC nodet inh
CCOc1ccc(-c2nc(CSc3nncs3)cs2)cc1OC	66%
Cc1cc(C)cc(OCc2nnc(SCC(=O)c3ccc(Br)cc3)o2)c1	-15%
CCc1ccccc1OCC(=O)Nc1ccc(S(N)(=O)=O)cc1	-10%
COc1cc(OC)cc(-c2nnc(SCC(=O)N3CCCc4ccccc43)o2)c1	55%
CC(=O)N1CCC2(CC1)CCN(C(=O)Nc1cccc(F)c1)CC2	4%
C=CCNC1=C(Cl)C(=O)N(c2ccccc2Cl)C1=O	7%
CCC1(C)CC(CC(=O)O)(c2ccccc2OC)CCO1 (centres undefined)	3%
Cc1ccc(O)c(NC(=O)CCCC(=O)O)c1	12%
Cc1cc(C)cc(NC(=O)CSc2nc3c(c(=O)n2C)SC(C)C3)c1 (centres undefined)	4%
Cc1ccccc1-c1nc2ccccc2c(=O)n1C1CCS(=O)(=O)C1 (centres undefined)	13%
CCOC(=O)C1CCN(c2nc(-c3ccccc3)nc3c2oc2ccccc23)CC1	5%
COc1ccc(CN2C(=O)c3ccccc3C2C(=O)NCC2CCCO2)c(OC)c1 (centres undefined)	11%
CC(C)(C)n1nnnc1C(c1ccccc1F)N1CCN(C2CCCC2)CC1 (centres undefined)	-1%
CCOC(=O)c1ccc2c(c1)N(Cc1ccccc1C)C(=O)c1ccccc1S2=O (centres undefined)	36%
O=C(CCC(=O)OCC(F)(F)C(F)F)Nc1ccc(Cl)cc1	-6%
CC(=O)OC1CSc2nc3ccccc3n2C1 (centres undefined)	-14%
CC(=O)c1cccc(NC(=O)Nc2ccc(C(=O)N3CCCC3)cc2)c1	-1%

Continued; it opens with the 2 that closed the last part.
SMILES	AmpC nodet inh
CC(=O)OC1CSc2nc3ccccc3n2C1 (centres undefined)	-14%
CC(=O)c1cccc(NC(=O)Nc2ccc(C(=O)N3CCCC3)cc2)c1	-1%
N[C@@H](CNO)C(=O)O	0%[5.75 µM]
COC(=O)C(Nc1nccs1)(OC)C(F)(F)F (centres undefined)	1%
Cc1ccc(C(=O)CSc2nnc(CNc3ccc(C)cc3C)n2Cc2ccco2)cc1	7%
COc1ccc(C2OC(=O)c3ccccc3S2)cc1 (centres undefined)	0%
CC(=O)c1c(C)[nH]c(C(=O)NCCCN2CCCC2)c1C	-11%
COc1ccc(C2N(c3cc(Cl)ccc3OC)C(=O)C3CCCN32)cc1OC (centres undefined)	28%
CC1CCCCC1NC(=O)Cn1[nH]c(=O)c2ccccc2c1=O (centres undefined)	10%
CS(=O)(=O)Nc1ccc(C(=O)NCc2ccccn2)cc1	-1%
Cc1ccc(N2C(=O)c3ccccc3C2(O)c2ncc[nH]2)cc1 (centres undefined)	-13%
COc1ccc(NC(=O)CN(c2cccc(F)c2)S(C)(=O)=O)cc1OC	19%
CCCCCCCCCCCCCCC1CO1 (centres undefined)	-11%
NC(=O)C1(N2CCCCC2)CCN(c2nc(-c3ccccc3)cs2)CC1	76%
Cc1ccc(Cn2c(=S)[nH]c3ccc(N4CCOCC4)cc3c2=O)o1	8%
CCC1CCCCN1CC(=O)c1c(C)[nH]c2ccccc12 (centres undefined)	-1%
O=C(CCCC(=O)N(CC(=O)NC1CCCCC1)Cc1ccco1)Nc1ccccn1	28%

5 consecutive compounds out of the list so far:
SMILES	AmpC nodet inh
O=C(C1CCN(S(=O)(=O)N2CCOCC2)CC1)N1CCOCC1	0%
O=C(CN1C(=O)COc2ccccc21)c1ccc(Cl)cc1	-3%
O=C(O)[C@H](Cc1cc(I)c(O)c(I)c1)C1CCCCC1	-14%[5.75 µM]
Cc1noc(C)c1C(=O)OCC(=O)c1c[nH]c2ccccc12	-15%
COc1ccc(C)cc1NC(=O)c1nc2nc(C)cc(C)n2n1	22%

(next part)
SMILES	AmpC nodet inh
O=C(CSc1nnnn1Cc1ccccc1)Nc1ccc2c(c1)OCCO2	-3%
COc1cccc2sc(Nc3nc(-c4ccccn4)cs3)nc12	115%
O=C(O)c1ccccc1C1c2ccccc2Oc2ccccc21	2%[5.75 µM]
CC(C)CCn1c(CN2CCOCC2)nc2c1c(=O)n(C)c(=O)n2C	-2%
CCC(=O)NCCNC(=O)c1c(SC)nsc1SC	-2%
c1ccc(-c2noc(CSc3nnnn3-c3ccccc3)n2)cc1	-19%
CC(=NCCO)c1c(O)n(C2CCCCC2)c(=O)[nH]c1=O	-3%
Cc1ccc(-c2nnn(CC(=O)O)n2)cc1	-9%
CCOC(=O)c1c(-c2cccs2)csc1NC(=O)c1ccco1	-5%
CCN(CC)CC(=O)n1c2c(c3ccccc31)CCCC2	27%
COc1ccc2c(c1)C(=O)OC2CC(=O)O (centres undefined)	-15%
c1ccc(Cc2nn3c(COc4ccccc4)nnc3s2)cc1	-7%
c1csc(Cc2nc(-c3ccc(-n4cccc4)cc3)no2)c1	13µM*
CCOC(=O)CCC(=O)c1c(C)oc2ccc(OC)cc12	15%
CSCCC=O	-11%
COc1cccc(-c2cc(C(=O)N3C(C)CCCC3C)no2)c1 (centres undefined)	32%
Cc1cccc(C#N)c1NC1=CC(=O)CC(C)(C)C1	-4%
Cc1noc(C)c1COc1cccc(C(=O)Nc2ccc(C#N)cc2)c1	-13%
O=C1N(CN2CCC3(CC2)OCCO3)c2ccccc2C12OCCCO2	19%
CCSc1nnc(NC(=O)CSc2nccn2-c2cc(C)cc(C)c2)s1	27%
COc1ccc(-c2cc(C(F)F)n3ncc(C(=O)NCCCN4CCCC4=O)c3n2)cc1	45%
CCOc1ccc2sc(NS(=O)(=O)c3ccc(OC)c(OC)c3)nc2c1	-6%
O=C(CCl)c1ccc(Cl)cc1Cl	-3%
COc1ccccc1OCc1ccc(C(=O)N2CCN3CCCC3C2)cc1 (centres undefined)	70%
CN(Cc1ccccc1)S(=O)(=O)c1ccc2c(c1)n(C)c(=O)n2C	54%
Cc1cccc2cc(CN(Cc3nnnn3Cc3ccco3)C3CCCC3)c3nnnn3c12	-2%
CCCC(C(=O)NC1CCCCC1)N(CC1CCCO1)C(=O)CNS(=O)(=O)c1ccc(F)cc1 (centres undefined)	74%
CCN(CC)C(=O)C1=C(C)NC(=O)NC1c1ccccc1F (centres undefined)	5%
CN(C)CCCc1cc(C(=O)Nc2ccc(-c3ccncc3)cc2)ccc1O	24%
CCSc1ccccc1C(=O)NCCCn1ccnc1	-5%
C=C(C)Cn1c(COc2ccccc2)nnc1SCC(=O)O	4%
Cc1c2cnccc2c(C)c2c1c1ccccc1n2CCOC(=O)c1ccccc1	6%[5.75 µM]
Cn1c(=O)c2c(nc(Cl)n2Cc2ccncc2)n(C)c1=O	-18%
COc1ccc(N2CCN(C(=O)CCS(=O)(=O)c3cccc4nsnc34)CC2)cc1	50%
N#CC1=C(N)SC(N)=C(C#N)C1c1ccc(C(F)(F)F)cc1	-16%
O=C(NCCNC(=O)C(c1ccccc1)c1ccccc1)c1ccco1	2%
COc1ccc(CNC(=O)c2cnc(C)cn2)c(OC)c1	8%
CCOC(=O)CSC1=C(C#N)C(c2ccccc2OCC)C(C(=O)OCC)C(=O)N1 (centres undefined)	9%
O=C(c1ccc2c(c1)OCO2)N1CCN=C1SCc1ccccc1	19%
CCOC(=O)N1CCC(Nc2cc(C)nc3c(-c4ccccc4OC)c(C)nn23)CC1	141%
O=S(=O)(NC1c2cccc3cccc(c23)C1N1CCN(CCO)CC1)c1ccccc1 (centres undefined)	63%
CCCCC(=O)N(CCOC)c1nnc(-c2ccc(OC)cc2)s1	108%
CCN(CC)CCNC(=O)C1CCN(S(=O)(=O)N2CCCCC2)CC1	-8%
COc1ccc(-c2csc(NCc3ccco3)n2)cc1	-9%
CCCC(C)C(=O)Nc1nnc(C)s1 (centres undefined)	11%

Another view of two compounds above.
| SMILES | AmpC nodet inh |
| --- | --- |
| N#CC1=C(N)SC(N)=C(C#N)C1c1ccc(C(F)(F)F)cc1 | -16% |
| O=C(NCCNC(=O)C(c1ccccc1)c1ccccc1)c1ccco1 | 2% |

Further compounds follow.
SMILES	AmpC nodet inh
CCCCCN(C(=O)NC(=O)Nc1nncs1)S(C)(=O)=O	-16%
Cc1[nH]c2ccccc2c1CCO	1%
CCCOc1nc(N)c(C#N)c(-c2ccccc2F)c1C#N	0%
COc1ccc(-c2nnnn2C)cc1S(=O)(=O)NCCc1ccccc1	4%
COc1ccccc1OCCC(=O)OCC(=O)NC(=O)NC(C)(C)C	23%
CCOc1ccc(NC(=O)N(CCN(C)C)C(C)c2ccncc2)cc1 (centres undefined)	0%
CCCCCc1cc(O)c2c(C)cc(=O)oc2c1	-12%
CC(=O)Nc1cccc(N)c1	-6%
C1CCc2c(nnc3c2-c2nonc2CC3)C1	15%
CCCn1c2c(c(O)c(C(=O)Nc3nc(C)cs3)c1=O)CCCC2	28%
Cc1ccnc(NS(=O)(=O)c2ccc(NC(=O)C3CCCO3)cc2)n1 (centres undefined)	-2%
CS(=O)(=O)N1CCC2(CC1)CN(C(=O)Nc1cccc(F)c1)C2	97%
Oc1ccc(Br)cc1CN1CCCCCCC1	-11%
Cc1ccc2cc(C#N)c(NCCCNC(=O)C3CCCO3)nc2c1 (centres undefined)	57%
OC(c1ccc(Cl)cc1)c1nnc(-c2ccccc2)o1 (centres undefined)	3%
Cc1sc(NC(=O)CSc2nnc(COc3ccccc3)n2C)c(C#N)c1C	0%
COc1cc(-c2nc3cnccn3c2Nc2ccccc2)ccc1O	21%
NC(=O)c1ccc(N2CCCCC2)c(N2C(=O)CCC2=O)c1	-3%
CCOc1ccc(NCC(=O)Nc2ccc(C)cc2C)cc1	-2%
Cc1ccc(-c2cnc(N)n2C)cc1C	16%
CCOC(=O)c1oc2ccccc2c1NC(=O)c1cccc(OC)c1OC	23%
O=S(=O)(c1ccc(OCC(O)CN2CCc3ccccc3C2)cc1)N1CCOCC1 (centres undefined)	42%
